AmpC nodet inh = Promiscuous and Specific Inhibitors of AmpC Beta-Lactamase (assay without detergent) | P00811 | AmpC nitrocefin hydrolysis, absorbance 480 nm, no detergent; potencies from a single point are estimates | Potency, µM (top dose mostly 28.7 µM), for the others: at the highest dose activity change, negative = inhibition | 71,000 compounds, 1.8% hits; active = falling curve, for most hits resting on a single point; inconclusive = weak or doubtful change; inactive = flat or rising curve; note: % of control where 0% means no effect; about half of the hits show no inhibition at the top dose; a quarter of the inactives give rising signals
Target sequence (P00811 whole entry, looked up): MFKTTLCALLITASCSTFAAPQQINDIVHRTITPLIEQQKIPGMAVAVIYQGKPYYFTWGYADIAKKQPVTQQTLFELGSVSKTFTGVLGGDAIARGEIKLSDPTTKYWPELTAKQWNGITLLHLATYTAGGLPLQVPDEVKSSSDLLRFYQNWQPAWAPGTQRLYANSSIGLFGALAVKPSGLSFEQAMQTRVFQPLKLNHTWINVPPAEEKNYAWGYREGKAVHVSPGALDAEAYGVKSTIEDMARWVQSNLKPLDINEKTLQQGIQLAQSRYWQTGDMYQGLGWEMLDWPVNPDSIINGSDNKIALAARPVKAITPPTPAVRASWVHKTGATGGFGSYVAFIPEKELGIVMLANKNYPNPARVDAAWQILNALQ
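AmpC in 20 mM phosphate buffer pH 7.0 was preincubated 15 min at room temperature with compounds. Nitrocefin (800 uM stock) was then added and hydrolysis followed at 480 nm every 20 s for 4 min.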
An asterisk follows results filed as active; ? = inconclusive; [ ] = another dose, or the depositor's remark. Potency is the fitted concentration of half-maximal effect.

structure	AmpC nodet inh
CC1CCCCC1NC(=O)CN1CCN(Cc2ccccc2Cl)C1=O (stereo not drawn)	40%
Cc1ccc(N2CC(C(=O)N3CCN(C(=O)c4ccco4)CC3)CC2=O)cc1 (stereo not drawn)	7%
O=C(Nc1cccc(Cl)c1)c1cnn2cccnc12	12%
COc1ccc(C)cc1Nc1cc(C)nc2ncnn12	8%
CC(NC(=O)Cc1cccs1)C(c1cccs1)N1CCN(c2ccccc2)CC1 (stereo not drawn)	38%
O=C(c1ccco1)N1CCN(c2ncnc3c2oc2ccccc23)CC1	50%
O=S(=O)(c1cccs1)n1cccn1	-12%
O=C(OCc1c(Cl)cccc1Cl)c1ccccn1	-8%
CCCCOCC1CO1 (stereo not drawn)	-7%
Cc1c(Cl)cccc1NC(=O)CCN1CCCCCC1	1%
O=C(OCc1nnc(-c2ccccc2)o1)C1=COCCO1	1%
O=C(N1CCOCC1)N1CCN(S(=O)(=O)c2ccccc2)C1	2%
O=C(NCc1cccc(Cl)c1)c1cnccn1	-1%
COc1ccccc1-n1c(C)nnc1SCC(=O)Nc1cccc(C(C)=O)c1	-7%
Cc1ccc(S(=O)(=O)NCc2ccc(C(=O)N(C)CCC#N)cc2)cc1	4%
Cc1ccc2nc(NC(=O)C3CCN(S(=O)(=O)c4ccc5c(c4)oc(=O)n5C)CC3)sc2c1	4µM*[single pt active]
O=C1CC(c2ccccc2)CN1Cc1ccccc1 (stereo not drawn)	34%
COc1ccc(CC(=O)Nc2cc(Cl)ccc2O)cc1	-2%
CCOC(=O)N1CCN(Cc2nc3c(c(=O)[nH]c(=O)n3C)n2Cc2cc(C)ccc2C)CC1	97%
O=C(Cc1c(O)c2ccccc2[nH]c1=O)NCc1ccccc1F	-9%
COc1ccc(C(=O)N=c2nc3ccccn3s2)cc1	42%
COc1ccc(S(=O)(=O)Nc2ccc(S(=O)(=O)N3CCOCC3)cc2)cc1C	2%
Cn1c(N)c(C(=O)COC(=O)c2ccc3c(c2)OCCO3)c(=O)n(C)c1=O	22%
CC(=O)Nc1ccc(Oc2nc(C)cc(C)n2)cc1	-10%
O=c1c2cc3c(=O)n(CC4CCCO4)c(=O)c3cc2c(=O)n1CC1CCCO1 (stereo not drawn)	10%
N=C1C(c2nc3ccccc3[nH]2)=C(O)CN1c1ccccc1	11%
N#CC1(c2ccccc2)CCCN1C(=O)c1ccco1 (stereo not drawn)	1%
Cc1nnc2ccc(N3CCC4(CC3)OCCO4)nn12	-19%
O=C(CSc1nc2ccccc2c(=O)[nH]1)Nc1ccc(S(=O)(=O)N2CCCC2)cc1	-5%
CCn1c(=O)cc(N2CCC3(CC2)OCCO3)[nH]c1=O	4%
COc1ccc(C2C3=C(CC(C)(C)CC3=O)Oc3ncn(CCCn4ccnc4)c(=N)c32)cc1 (stereo not drawn)	60%
Cc1ccc(-c2nnn(CC(=O)Nc3ccc4nn(-c5ccccc5)nc4c3)n2)o1	26%
COc1ccc(C2C3=C(CCCC3=O)Nc3nc(SCc4ccccc4)nn32)cc1OC (stereo not drawn)	75%
O=C(O)C1[C@H]2C(=O)N(C3CCCC3)C[C@]23C=C[C@H]1O3 (stereo partly drawn)	-11%
Cc1cccc(NC(=O)C(C)Oc2ccccc2C)n1 (stereo not drawn)	12%
O=C1OC(N2CCN(c3ccccn3)CC2)c2ccccc21 (stereo not drawn)	4%
CCOc1ccccc1N(C(=O)c1snc(C(N)=O)c1N)C(C(=O)NCCC(C)C)c1ccco1 (stereo not drawn)	16%
CC12CC(NC(=O)N1c1cccc(C(=O)N3CCN(c4ccccn4)CC3)c1)c1ccccc1O2 (stereo not drawn)	104%
COc1cc(CCC(=O)Nc2cc(Cl)ccc2N2CCN(C)CC2)cc(OC)c1OC	77%
Cn1c(=O)c2c(nc(CN3CCN(Cc4ccccc4)CC3)n2Cc2cccc(Cl)c2)n(C)c1=O	148%
CC(C(=O)NCC1(c2ccccc2)CCCC1)N1CCCC1 (stereo not drawn)	-4%
CCCCn1c(SCC(=O)NCc2cccs2)nc2c1c(=O)n(C)c(=O)n2C	14%
O=C(O)c1cc(S(=O)(=O)N2CCCCCC2)ccc1Cl	-1%
CNC(=O)[C@@]1(C)C=C[C@@H](Cc2ccccc2)N1C(C)=O	9%
CCOC(=O)c1ccc(Oc2nc(SC)nc(N(C)C)n2)cc1	66%
COC(=O)c1ccc(Oc2c(C)oc3c(CN4CCN(C)CC4)c(O)ccc3c2=O)cc1	21%
Cc1cnc(CNc2cc(-c3ccccc3C)ncn2)cn1	30%
COc1cc(C(=S)N2CCCCC2)ccc1OCC(=O)N1CCCC1	20%

Three compounds drawn at random from those above, as already listed:
structure	AmpC nodet inh
Cc1ccc2nc(NC(=O)C3CCN(S(=O)(=O)c4ccc5c(c4)oc(=O)n5C)CC3)sc2c1	4µM*[single pt active]
CCCCOCC1CO1 (stereo not drawn)	-7%
O=C(c1ccco1)N1CCN(c2ncnc3c2oc2ccccc23)CC1	50%

Further structures
structure	AmpC nodet inh
COc1cccc2cc(NC(=O)C3CCCCC3)c(=O)oc12	8%
C=CCN1C(=O)C(C)(C)Nc2ccccc21	6%
O=c1c(-c2ccccc2)nc2cnc(N3CCNCC3)nc2n1Cc1cccs1	54%
COc1ccc(OC)c(NC(=O)Cn2cccc2)c1	3%
CCOC(=O)C1CCCN(c2nc(C)nc3c2oc2ccccc23)C1 (stereo not drawn)	-4%
COc1cc(CN2CCC(C(=O)NC3CCCC3)CC2)cc(OC)c1O	-5%
Cn1c2c(c(=O)n(C)c1=O)C(NC(=O)c1ccco1)(C(F)(F)F)C(=O)N2 (stereo not drawn)	-2%
Cc1ccccc1-n1c(C)nc2ccccc21	20%
NC(=O)CC1(CC(=O)O)CCCCC1	-25%
O=C(Nc1ccc2snnc2c1)N1CCSCC1	-13%
COc1ccccc1N=c1oc2cc(O)ccc2cc1C(N)=O	3%
COc1ccc(-n2nc3cc(C)c(N)c(Br)c3n2)cc1	2%

Part of the list above, field by field.
> CCOC(=O)C1CCCN(c2nc(C)nc3c2oc2ccccc23)C1 (stereo not drawn)
  AmpC nodet inh = -4%
> COc1cc(CN2CCC(C(=O)NC3CCCC3)CC2)cc(OC)c1O
  AmpC nodet inh = -5%
> Cn1c2c(c(=O)n(C)c1=O)C(NC(=O)c1ccco1)(C(F)(F)F)C(=O)N2 (stereo not drawn)
  AmpC nodet inh = -2%

Next section.
mol | AmpC nodet inh
COc1ccc(-c2noc(CSc3nc4ccccc4c(=O)n3-c3ccccc3)n2)cc1 | -4%
O=C1CC2(CON=C2c2ccc(F)cc2)C(=O)N1c1ccc(F)cc1 (stereo not drawn) | -14%
CN(C)CC/C=C1\c2ccccc2Sc2ccc(Cl)cc21 | 12%[5.75 µM]
Oc1cc2c(cc1O)CN(C(=S)NCCc1ccc(Cl)cc1)CCC2 | ?
COc1cccc(-c2nc(CS(=O)(=O)CC(=O)N3CCc4ccccc4C3)c(C)o2)c1 | 81%
CCn1c(NCc2cccc(OC)c2OC)nc2ccccc21 | 20%
O=C(CCc1nc2ccccc2[nH]c1=O)OCc1ccc(S(=O)(=O)N2CCOCC2)cc1 | 17%
CC1CN(C(=O)Nc2ccc3snnc3c2)c2ccccc21 (stereo not drawn) | 2µM*
COc1cc(C)c(Cl)cc1S(=O)(=O)NCc1ccco1 | 19%
O=C(Nc1ccccc1)OC1C2CCC1C(N1CCCCC1)CC2 (stereo not drawn) | -2%
CCCNC(=O)NC(=O)COC(=O)c1ccc(OC)c(S(=O)(=O)N2CCCc3ccccc32)c1 | 19%
CCc1nc(C)cn1S(=O)(=O)c1cc(OC)c(C)cc1C | 50%
COCCOC(=O)C1=C(N)Oc2c(c(=O)oc3ccccc23)C1c1ccncc1 (stereo not drawn) | 34%
COc1ccccc1CNS(=O)(=O)c1ccc2c(c1)oc(=O)n2C | 15%
C=CCNc1nc(N)c(C(=O)c2ccc3c(c2)OCO3)s1 | -20%
CCC(C)(C)NC(=O)C(c1ccc(C)o1)N(Cc1cccs1)C(=O)Cn1nnc2ccccc21 (stereo not drawn) | 22%
Cc1cccc2cc(C#N)c(NCCCn3ccnc3)nc12 | 50%
CCOC(=O)c1ccc(NC(=O)CC2OCCN(CC)C2=O)cc1 (stereo not drawn) | -3%
CSc1nc(SCC(N)=O)c2c3c(sc2n1)CN(C)CC3 | 42%
OCc1ccc(-c2nn(Cc3ccccc3)c3ccccc23)o1 | 0%
CCOCCCNc1ncnc2c1[nH]c1ccccc12 | -23%
CCn1c(=O)c2ccccc2n2c(SCC(=O)N3CCCc4ccccc43)nnc12 | 22%
NC(=O)COC(=O)C(Cc1ccccc1)NS(=O)(=O)c1ccccc1F (stereo not drawn) | 13%
O=C(NCc1cccnc1)c1cn(CCc2ccccc2)nn1 | 1%
Cn1c(SCC(=O)NCc2ccc3c(c2)OCO3)nnc1-c1c[nH]c2ccccc12 | -2%
O=C1CCc2cc(S(=O)(=O)N3CCC(C(=O)NCc4ccccn4)CC3)ccc2N1 | 7%
O=C(CN1C(=O)COc2ccc(Cl)cc21)N1CCc2ccccc21 | 6%
Clc1ccc(SCCn2ccnc2)cc1 | -9%
Cc1cc(C)c(C#N)c(SCc2ccccc2C(=O)O)n1 | -10%
Cn1c(SCCSc2nnc(-c3ccccc3)n2C)nnc1-c1ccccc1 | 0%

Entries above containing a cyano group (4):
mol | AmpC nodet inh
Cc1ccc(S(=O)(=O)NCc2ccc(C(=O)N(C)CCC#N)cc2)cc1 | 4%
N#CC1(c2ccccc2)CCCN1C(=O)c1ccco1 (stereo not drawn) | 1%
Cc1cccc2cc(C#N)c(NCCCn3ccnc3)nc12 | 50%
Cc1cc(C)c(C#N)c(SCc2ccccc2C(=O)O)n1 | -10%

Some of these compounds in order of heavy-atom count, low to high:
mol | AmpC nodet inh
O=C1CC2(CON=C2c2ccc(F)cc2)C(=O)N1c1ccc(F)cc1 (stereo not drawn) | -14%
Cn1c(SCCSc2nnc(-c3ccccc3)n2C)nnc1-c1ccccc1 | 0%
CCCNC(=O)NC(=O)COC(=O)c1ccc(OC)c(S(=O)(=O)N2CCCc3ccccc32)c1 | 19%

Further results
mol | AmpC nodet inh
CN(C)c1ccc(-c2nccc(NCCN3CCOCC3)n2)cc1 | 48%
CCOC(=O)c1[nH]c(C)c(C(=O)N2CCN(c3ccccc3)CC2)c1C | 79%
Cc1c(-c2ccccc2)nc2ccccc2c1C(=O)O | 62%
CCOC(=O)C(CC)Sc1nc2c(c(=O)[nH]c(=O)n2C)n1C/C=C(/C)Cl (stereo not drawn) | 23%
CCOC(=O)c1[nH]c(C)c(C(=O)N2CCN(c3ccc(F)cc3)CC2)c1C | 98%
CC(=O)c1cccc(NC(=O)c2ccc(Br)o2)c1 | -8%
O=S(=O)(c1ccccc1)c1nc(-c2cccs2)oc1NCC1CCCO1 (stereo not drawn) | 8%
CN1C[C@H](CO)C=C2c3cccc4[nH]cc(c34)C[C@H]21 | 5%
O=C(NC1CCCCC1)Sc1ccc(Cl)cc1 | -13%
Cc1nnc(SCC(=O)N2c3ccccc3Sc3ccccc32)n1N | 12%
CC(=O)c1cccc(NS(=O)(=O)N(C)C)c1 | 3%
Cc1cc(Nc2ccccc2)n(CCC#N)n1 | 10%
Cc1ccc(C2C=C(c3ccccc3OC(F)F)Nc3ncnn32)cc1 (stereo not drawn) | 19%
O=C(CCn1nc(-c2ccc(Cl)cc2)ccc1=O)NCc1ccccn1 | 42%
CN(C)c1ccc(NC(=O)CN2CCN(S(=O)(=O)c3cc(Cl)ccc3Cl)CC2)cc1 | 89%
COc1ccc(OC)c(N(CC(=O)Nc2cccnc2)S(=O)(=O)c2ccc(OC)c(OC)c2)c1 | 76%
O=C(NCCCN1CCOCC1)c1cc2c(=O)[nH]c3ccccc3c2s1 | 38%
Cc1ccc(C2CC(=O)c3cnc(N4CCN(c5ccccc5)CC4)nc3C2)cc1 (stereo not drawn) | 1%
CCOC(=O)c1cc(C(=O)OCC)cc(-n2c(C)cc(C(=O)CN3CCOCC3)c2C)c1 | 142%
COc1ccc(CN(Cc2cc3cccc(C)c3[nH]c2=O)C(=O)N(C)C)cc1 | 82%
Cc1ccc(/C=C/S(=O)(=O)N2CCC(C(=O)O)CC2)cc1 | 1%
O=C(c1ccc(S(=O)(=O)N2CCCCC2)cc1)N1CCCc2ccccc21 | 32%
O=C(c1noc2c1CCCC2)N1CCN(Cc2ccccc2)CC1 | 27%
COc1ccc(NC(=O)N2CC[C@@]3(CCCN(C(=O)c4csnn4)C3)C2)cc1 | 6%
Nc1nnc(SCC(=O)N2CCc3ccccc32)n1-c1ccccc1 | 17%
Cc1ccn2cc(C(=O)Nc3nnc(C)s3)nc2c1 | -16%
Cc1nc(CNS(=O)(=O)c2cc(C)c(C)cc2C)cs1 | 6%
CCOC(=O)N1CCN(c2c(NCC3CCCO3)c(=O)c2=O)CC1 (stereo not drawn) | 4µM*[single pt active]
C=CCOC(=O)c1[nH]c2c(c1C)C(=O)CC(c1cc(OC)c(OC)c(OC)c1)C2 (stereo not drawn) | 54%
Cc1cc(C(=O)OCC(=O)c2ccc(Br)s2)c(C)o1 | -16%
COC(=O)[C@H](CCSC)NC(=O)Nc1ccc(C(C)=O)cc1 | -7%

Only part of the results is shown; rates above refer to the full screens.
